Compound activity from PubChem BioAssay.
Mtb H37Rv – M. tuberculosis H37Rv growth inhibitors, H37Rv strain (AID 1626). M. tuberculosis H37Rv growth inhibition; higher % means a stronger effect. inhibition, % at 10 µM, or IC50 in µM where a hit was titrated. 220,000 compounds, 0.95% hits;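 active means confirmed in a dose series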;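 further: bacteria incubated seven days before Alamar blue readout; 0% = bacteria only wells and 100% = bacteria with antibiotic wells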
Arbovirus inh – antivirals against arbovirus infection, primary screen, cell-based, full library, 10K replicate subset. arbovirus infection cell-based antiviral screen. inhibition, % at 10 µM. 200,000 compounds, 0.37% hits;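 active means inhibition from about 30%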;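 further: bluetongue infection of BSR cells; cell survival read as ATP light after 72 h; 0% = infected wells without compound and 100% = uninfected wells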
RecA splice inh – Mtb RecA intein splicing inhibitors, primary screen, biochemical, fluorescence, HTS; 290,000 compounds, 0.75% hits; Protein RecA (Mycobacterium tuberculosis (strain ATCC 25618 / H37Rv)), P9WHJ3; cell-free RecA intein splicing; AID 2221, 2009; inhibition, %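 (about 9 µM by stock and volumes)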; in the data active means inhibition above about 30%;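 further: 0% = vehicle wells and 100% = reference inhibitor control wells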
Target sequence (P9WHJ3 whole entry, looked up, canonical isoform): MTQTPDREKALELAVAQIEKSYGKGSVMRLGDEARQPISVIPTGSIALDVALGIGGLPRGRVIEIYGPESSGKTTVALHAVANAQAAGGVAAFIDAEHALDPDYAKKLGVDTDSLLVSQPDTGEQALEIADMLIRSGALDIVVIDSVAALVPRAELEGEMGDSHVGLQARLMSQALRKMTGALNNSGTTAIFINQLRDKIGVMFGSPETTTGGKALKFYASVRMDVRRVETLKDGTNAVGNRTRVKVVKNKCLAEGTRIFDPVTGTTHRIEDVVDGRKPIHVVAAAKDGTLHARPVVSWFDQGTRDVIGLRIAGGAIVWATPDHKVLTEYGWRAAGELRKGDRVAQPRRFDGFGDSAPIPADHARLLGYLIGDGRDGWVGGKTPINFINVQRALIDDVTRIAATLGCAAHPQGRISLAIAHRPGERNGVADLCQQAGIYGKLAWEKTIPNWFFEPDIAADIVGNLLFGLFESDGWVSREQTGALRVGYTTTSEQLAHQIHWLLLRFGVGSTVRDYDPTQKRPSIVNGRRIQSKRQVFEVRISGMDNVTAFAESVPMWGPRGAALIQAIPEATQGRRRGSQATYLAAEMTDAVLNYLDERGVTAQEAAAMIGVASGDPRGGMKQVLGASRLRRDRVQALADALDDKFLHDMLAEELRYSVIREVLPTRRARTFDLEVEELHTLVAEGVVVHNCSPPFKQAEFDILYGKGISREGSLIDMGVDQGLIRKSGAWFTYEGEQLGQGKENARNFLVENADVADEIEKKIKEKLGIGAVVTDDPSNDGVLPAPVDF
YopH inh – YopH tyrosine phosphatase inhibitors, primary screen, biochemical, fluorescence Ex485/Em525 | YopH tyrosine phosphatase [Yersinia enterocolitica] | inhibition, %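 (about 10 µM by stock and volumes)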 | 140,000 compounds, 0.16% hits | AID 898, 2007;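 active means inhibition of 50% or more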;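 further: controls were vehicle for no effect and minimum signal wells for full effect; inactives centre near -20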
Mtb betalactam – beta-lactam sensitization of Mtb H37Rv, H37Rv | 330,000 compounds, 0.27% hits | inhibition, % at 25 µM | AID 434955, 2010 | M. tuberculosis H37Rv growth with meropenem, percent inhibition; hits of this screen are not shown here;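 active means about 74% or more and at least 40 points above the plate without the antibiotic, then above 30% in a dose series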;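 further: growth measured after seven days incubation then overnight dye step; 0% = bacteria only wells and 100% = bacteria with antibiotic; twin plates without the antibiotic show which effects depend on it; some results filed as inactive read as strong as hits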
Arbovirus inh repeat – recorded beside Arbovirus inh, whose call it bears; inhibition, %; measured here: 10K subset replicate screen; many hits read low in the repeat;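 first of two repeat runs on a subset; 0% = infected and 100% = uninfected wells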
The depositor's hits bear a star; nt = no result given. A portion of the library, so the mix of outcomes need not match the whole.

SMILES	Mtb H37Rv	Arbovirus inh	RecA splice inh	YopH inh	Mtb betalactam	others
O=C(Cc1c(F)cccc1Cl)NCC1CCCO1 (stereo not drawn)	-3%	6	-1.7	-14	0
CC(=O)c1ccc(OCc2cc(C(=O)NC(C)c3cnn(C)c3)no2)cc1 (stereo not drawn)	nt	nt	3.0	nt	5
CCOCC(=O)NCc1ccc2c(c1)cc(C)n2C	nt	7	30*	nt	-5	Arbovirus inh repeat=-6
NC1=C(c2ccc([N+](=O)[O-])cc2)C(=O)CO1	-3%	1	1.2	-22	-8
O=S(=O)(c1ccccc1)N(CC1CO1)c1ccccc1 (stereo not drawn)	2%	18	4.4	nt	-4
O=C(Cn1cnc2c(cnn2-c2ccc(F)cc2)c1=O)OCc1ccccc1	-2%	8	0.4	-41	-3
Cc1cc(OCC(=O)NCC2CCC(C(=O)O)CC2)c2c(C)cc(=O)oc2c1 (stereo not drawn)	nt	nt	-4.9	nt	-3
Clc1cnc2nc(SC/C=C/c3ccccc3)[nH]c2c1	1%	nt	0.8	nt	-4
CN1CCCN(S(=O)(=O)c2ccccc2)CC1	nt	nt	-0.9	nt	-8
Cn1cc([N+](=O)[O-])c(C(=O)Nc2nc(-c3ccc(Cl)cc3)cs2)n1	3%	-40	-4.3	-20	-7
COc1ccc(N2CCN(c3nc(Nc4ccc(C)c(F)c4)nc(N4CCCC4)n3)CC2)cc1	1%	3	1.4	nt	2
CCCCCCCCNC(=S)NCCN1CCCCC1	3%	1	-0.7	nt	nt
O=C(C1CCC1)N(CCc1ccccc1)Cc1nc2ccccc2c(=O)[nH]1	0%	14	2.8	-11	-7
COc1cc2c(cc1OC)CN(c1ccc(F)cc1[N+](=O)[O-])CC2	nt	nt	2.3	nt	0
CN(C)c1ccc(C=NC(CO)C(O)c2ccc([N+](=O)[O-])cc2)cc1 (stereo not drawn)	-1%	nt	-3.1	nt	-2
COC(=O)/C=C/c1ccc(OC(=O)c2ccncc2)cc1	34%	-9	11	-17	5
Cc1ccnc(N=Cc2nc(-c3ccccc3Br)oc2O)c1	-3%	-4	-0.4	nt	5
CCOC(=O)N1CCC(NC(=O)c2cc3c(-c4ccccc4F)nn(C)c3s2)CC1	0%	1	0.5	-35	-2	Arbovirus inh repeat=-1
CCN(CC)S(=O)(=O)c1ccc(NC(=O)C2c3ccccc3Oc3ccccc32)cc1	-3%	-3	13	-20	2
COc1ccc(C2=NOC(Cn3c(Cc4ccc(Cl)cc4)nc4c3c(=O)n(C)c(=O)n4C)C2)cc1 (stereo not drawn)	1%	-5	-2.2	-20	-1
Cc1cccc(-n2c(SCC(=O)O)nc3sc4c(c3c2=O)CCC4)c1	-3%	nt	-2.2	nt	-3
CCc1ccccc1NCc1cc(=O)oc2cc(C)ccc12	nt	nt	0.5	nt	-6
COc1ccc(CC(=O)Nc2nnc(C(C)C)s2)cc1OC	-5%	5	-2.4	nt	52
COc1ccc(-c2noc(CCC(=O)Nc3ccc4c(c3)OCCO4)n2)cc1	31µM*	16	-1.2	-15	98
CCOC(=O)c1c(C#N)cnn1-c1ccc(C)cc1	-5%	1	0.3	-52	-5

Filtered by structure: the entries above containing fluorine
SMILES	Mtb H37Rv	Arbovirus inh	RecA splice inh	YopH inh	Mtb betalactam	others
O=C(Cc1c(F)cccc1Cl)NCC1CCCO1 (stereo not drawn)	-3%	6	-1.7	-14	0
O=C(Cn1cnc2c(cnn2-c2ccc(F)cc2)c1=O)OCc1ccccc1	-2%	8	0.4	-41	-3
COc1ccc(N2CCN(c3nc(Nc4ccc(C)c(F)c4)nc(N4CCCC4)n3)CC2)cc1	1%	3	1.4	nt	2
COc1cc2c(cc1OC)CN(c1ccc(F)cc1[N+](=O)[O-])CC2	nt	nt	2.3	nt	0
CCOC(=O)N1CCC(NC(=O)c2cc3c(-c4ccccc4F)nn(C)c3s2)CC1	0%	1	0.5	-35	-2	Arbovirus inh repeat=-1

In the list so far, these contain a Cl atom:
SMILES	Mtb H37Rv	Arbovirus inh	RecA splice inh	YopH inh	Mtb betalactam	others
O=C(Cc1c(F)cccc1Cl)NCC1CCCO1 (stereo not drawn)	-3%	6	-1.7	-14	0
Clc1cnc2nc(SC/C=C/c3ccccc3)[nH]c2c1	1%	nt	0.8	nt	-4
Cn1cc([N+](=O)[O-])c(C(=O)Nc2nc(-c3ccc(Cl)cc3)cs2)n1	3%	-40	-4.3	-20	-7
COc1ccc(C2=NOC(Cn3c(Cc4ccc(Cl)cc4)nc4c3c(=O)n(C)c(=O)n4C)C2)cc1 (stereo not drawn)	1%	-5	-2.2	-20	-1

More compounds:
SMILES	Mtb H37Rv	Arbovirus inh	RecA splice inh	YopH inh	Mtb betalactam	others
CCc1ccc(S(=O)(=O)N2CCN(c3ccccc3OC)CC2)cc1	nt	nt	0.0	nt	6
COc1ccc(-c2nc(CS(=O)CC(=O)NCCCN3CCOCC3)c(C)o2)cc1OC (stereo not drawn)	nt	nt	-2.1	nt	-4
COc1cc(OC)c(CN2CCC(Cc3ccccc3)CC2)cc1Br	nt	nt	-0.5	nt	-1
O=C1C(Cc2ccccc2O)NC(=S)N1c1ccccc1 (stereo not drawn)	1%	nt	-0.1	nt	0
O=C(Cn1nnc(-c2ccncc2)n1)Nc1ccc2c(c1)CCC2	3%	6	0.7	6	-10
Cc1c(NC(=O)/C=C/c2cn(-c3ccccc3)nc2-c2ccc(F)cc2)c(=O)n(-c2ccccc2)n1C	nt	nt	4.9	nt	14
COC(=O)[C@H](C)NC(=O)Nc1ccc(Oc2ccccc2)cc1	-4%	-4	1.1	-18	-3
COCc1cc(C)nc(OCC(=O)N/N=C/c2ccc(-c3cccc([N+](=O)[O-])c3)o2)c1C#N	nt	1	-1.1	-14	-6
O=C(NCCc1ccccc1)C1CC(=O)N(CCc2ccccc2)C1 (stereo not drawn)	nt	nt	1.0	nt	-3
Cc1cc(C)cc(C(=O)NC(=S)Nc2ccc3c(c2)OCCO3)c1	65%	0	1.5	8	3
Cc1c(Br)cc(C(=O)NC2CCCCC2)c(C)c1C	2%	11	-3.5	-1	50
O=C(CCNC(=O)c1ccc(Br)cc1)NC1CCCc2ccccc21 (stereo not drawn)	nt	nt	1.1	nt	-8
NC(=O)CSc1nnc(NC(=O)C2CC(=O)N(c3ccc(F)cc3)C2)s1 (stereo not drawn)	nt	nt	3.4	nt	7
Cc1nn(-c2ccccc2)c(C)c1NC(=O)COc1ccc(C#N)cc1	2%	-3	-1.0	-10	-3
O=C(NNC(=O)C1CCN(c2ncccn2)CC1)c1ccccc1	2%	3	-3.4	nt	2
Cc1cc(C)nc(NNC(=O)NC2CCCCC2)n1	2%	0	1.2	nt	3
O=C(CCNC(=O)c1ccc(Cl)cc1)NCCC1=CCCCC1	nt	nt	1.0	nt	-6
O=C(OCC1OC(n2cnc3c(N(C(=O)c4ccccc4)C(=O)c4ccccc4)ncnc32)C(O)C1F)c1ccccc1 (stereo not drawn)	-1%	3	nt	28	5
COc1ccc(C(=O)NCc2n[nH]c(=S)n2-c2ccccc2)cc1OC	8%	2	-0.4	-11	3
CCCCOc1ccc(C(=O)N2CCNC(=O)C2CC(=O)OC(C)C)cc1 (stereo not drawn)	nt	nt	-0.1	nt	2
Oc1c(N=NC(=S)Nc2ccccc2F)c2ccccc2n1Cc1cccc(Cl)c1	-1%	-9	nt	nt	14
CC(=O)Nn1c(COc2ccccc2C)nc2ccccc2c1=O	-1%	2	4.5	-50	4
Cc1ccc(/C=N/n2cnc3sc4c(c3c2=O)CCCC4)o1	-4%	-1	5.4	-20	-1
CC(C)(C)c1ccccc1NC(=O)NC1CCN(Cc2c(F)cccc2Cl)CC1	-9%	nt	0.8	nt	0
CC(=O)c1cc(C)ccc1OC(=O)c1cccc2nc(C)oc12	-55%	8	0.1	-22	-1
SMILES	Mtb H37Rv	Arbovirus inh	RecA splice inh	YopH inh	Mtb betalactam	others
CCS(=O)(=O)N1Cc2ccccc2CC1C(=O)Nc1nnc(SCc2c(Cl)cccc2Cl)s1 (stereo not drawn)	21%	-10	1.7	-3	5
COc1ccccc1NC(=O)CSCc1cc(=O)n2ccsc2n1	nt	nt	-1.1	nt	-10
Cc1nc2sc(C(c3cccc(F)c3)N3CCN(C(=O)c4ccco4)CC3)c(O)n2n1 (stereo not drawn)	-4%	-2	3.8	-16	-4
Cn1c(=O)c2c(-c3ccccc3)n(C3CCCCC3)cc2n(C)c1=O	4%	-10	1.0	-2	76
COC(=O)CC1Sc2ccccc2NC1=O (stereo not drawn)	-6%	4	-1.8	-47	2
COCCCNC(NC(=O)c1ccc(C)cc1)C(Cl)(Cl)Cl (stereo not drawn)	nt	8	-1.9	-28	-9
Cc1cc(NC(=O)c2sc(Nc3ccc(F)cc3)nc2N)no1	-3%	24	4.6	nt	2
CC1=NNC(=O)C1CCC(=O)N/N=C\c1ccccc1[N+](=O)[O-] (stereo not drawn)	-9%	-2	-1.0	-50	-8
CC1CCCCN1CCCNC(=O)c1nn(C)c2c1CSc1ccccc1-2 (stereo not drawn)	nt	nt	-1.7	nt	0
CC(O)CN1CC(O)=C(c2nc3ccccc3s2)C1=N (stereo not drawn)	0%	9	-5.5	nt	1
CCN(Cc1cnn(C)c1)C(=O)c1ccc(OC2CCN(S(=O)(=O)N(C)C)CC2)cc1	-4%	6	2.0	nt	-4
CC(C)(C)c1cc(NC(=O)Nc2ccccc2OC(F)(F)F)no1	nt	nt	-1.7	nt	7
O=C(O)c1ccc2nc(-c3ccccc3)sc2c1	2%	-3	0.2	-39	0
O=C(Nc1ccc2c(c1)OCCO2)NC1(C(F)(F)F)Oc2ccccc2O1	5%	-19	-2.1	-47	2
O=C(c1c[nH]c(C(=O)N2CCN(Cc3ccccc3)CC2)c1)C1CCCCC1	-1%	-11	-3.2	nt	7
O=C(NC1CCCc2ccccc21)N[C@@H](Cc1ccccc1)C(=O)O (stereo partly drawn)	nt	nt	-1.3	nt	-1
O=C(NCCCN1CCOCC1)c1cnn2c(-c3ccccc3)cc(-c3ccccc3)nc12	nt	6	-27	-31	71
Cc1ccc(CNCCNCCO)s1	-3%	4	-0.5	nt	-4
CCCN1CCC(=O)N(CCN=[N+]=[N-])CC1	nt	nt	-0.5	nt	-14
CN1CC(c2ccccc2)C2(COc3ccccc3C2=O)C12C(=O)Nc1ccccc12 (stereo not drawn)	-8%	6	2.5	-50	-16
O=C(Cc1ccc(Cl)cc1)Nc1ccc(-c2cc3ccccc3oc2=O)c(Cl)c1	21%	-11	2.3	-16	54
CN1C2=CC=CC=CC2=[N+](C)C12C([N+](=O)[O-])=CC(=[N+]([O-])[O-])C=C2[N+](=O)[O-] (stereo not drawn)	7%	nt	0.4	nt	2
O=C1/C(=C/c2ccccc2F)SC(=S)N1CC(=O)N1CCCCC1c1cccnc1 (stereo not drawn)	nt	nt	32*	nt	73
Fc1ccc(Cn2c(-c3cscn3)nc3ccccc32)c(Cl)c1	6%	-1	-1.0	-13	-1

Two compounds drawn at random from those above, as already listed:
SMILES	Mtb H37Rv	Arbovirus inh	RecA splice inh	YopH inh	Mtb betalactam	others
COc1ccc(-c2nc(CS(=O)CC(=O)NCCCN3CCOCC3)c(C)o2)cc1OC (stereo not drawn)	nt	nt	-2.1	nt	-4
O=C(OCC1OC(n2cnc3c(N(C(=O)c4ccccc4)C(=O)c4ccccc4)ncnc32)C(O)C1F)c1ccccc1 (stereo not drawn)	-1%	3	nt	28	5
